Arbovirus inh = antivirals against arbovirus infection | arbovirus infection cell-based antiviral screen | inhibition, % at 10 µM | 0.37% of 200,000 active;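 active means inhibition from about 30%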;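 further: bluetongue infection of BSR cells; cell survival read as ATP light after 72 h; 0% = infected wells without compound and 100% = uninfected wells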
Mtb growth = M. tuberculosis H37Rv growth inhibitors, H37Rv strain (AID 1626); M. tuberculosis H37Rv growth inhibition; higher % means a stronger effect; inhibition, % at 10 µM, or IC50 in µM where a hit was titrated; 0.95% of 220,000 active;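 active means confirmed in a dose series; inconclusive means inhibition above 80% but not taken into the dose series; inactive means below 80% or under 30% at every dose of the series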;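 further: bacteria incubated seven days before Alamar blue readout; 0% = bacteria only wells and 100% = bacteria with antibiotic wells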
RecA splice inh = inhibitors of M. tuberculosis RecA intein splicing. 0.75% of 290,000 active. cell-free RecA intein splicing, fluorescence. inhibition, %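 (about 9 µM by stock and volumes)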. P9WHJ3. AID 2221; in the data active means inhibition above about 30%; inconclusive means no clear call, values can overlap the other calls;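 further: 0% = vehicle wells and 100% = reference inhibitor control wells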
Target sequence (P9WHJ3 whole entry, looked up, canonical isoform): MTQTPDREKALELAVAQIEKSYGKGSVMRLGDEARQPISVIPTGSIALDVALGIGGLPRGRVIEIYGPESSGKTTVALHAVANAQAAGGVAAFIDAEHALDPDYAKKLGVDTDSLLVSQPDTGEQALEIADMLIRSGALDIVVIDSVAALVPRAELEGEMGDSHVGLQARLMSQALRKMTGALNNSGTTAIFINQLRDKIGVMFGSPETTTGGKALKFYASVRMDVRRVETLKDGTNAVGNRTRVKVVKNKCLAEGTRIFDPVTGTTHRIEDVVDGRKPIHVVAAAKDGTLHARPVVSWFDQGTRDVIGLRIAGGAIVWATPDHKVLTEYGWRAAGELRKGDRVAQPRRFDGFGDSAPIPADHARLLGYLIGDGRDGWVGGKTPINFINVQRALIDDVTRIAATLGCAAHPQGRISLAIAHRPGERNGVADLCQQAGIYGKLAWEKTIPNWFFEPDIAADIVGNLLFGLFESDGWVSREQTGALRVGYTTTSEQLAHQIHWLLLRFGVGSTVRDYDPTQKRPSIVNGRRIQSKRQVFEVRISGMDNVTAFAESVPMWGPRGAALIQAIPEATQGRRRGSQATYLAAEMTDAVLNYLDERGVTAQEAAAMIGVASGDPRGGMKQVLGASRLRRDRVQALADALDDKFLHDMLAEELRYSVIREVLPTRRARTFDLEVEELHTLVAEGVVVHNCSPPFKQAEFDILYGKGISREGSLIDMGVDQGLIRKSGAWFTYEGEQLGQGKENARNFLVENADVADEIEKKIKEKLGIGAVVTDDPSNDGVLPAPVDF
YopH inh = blocks Yersinia enterocolitica YopH tyrosine phosphatase | inhibition, %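 (about 10 µM by stock and volumes)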 | 0.16% of 140,000 active | AID 898 | fluorescence Ex485/Em525;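 active means inhibition of 50% or more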;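 further: controls were vehicle for no effect and minimum signal wells for full effect; inactives centre near -20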
Mtb bLac sens = beta-lactam sensitization of Mtb H37Rv. M. tuberculosis H37Rv growth with meropenem, percent inhibition; hits of this screen are not shown here. inhibition, % at 25 µM. 0.27% of 330,000 active;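 active means about 74% or more and at least 40 points above the plate without the antibiotic, then above 30% in a dose series; inconclusive means first-round hits that could not be retested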;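 further: growth measured after seven days incubation then overnight dye step; 0% = bacteria only wells and 100% = bacteria with antibiotic; twin plates without the antibiotic show which effects depend on it; some results filed as inactive read as strong as hits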
Arbovirus inh repeat = recorded beside Arbovirus inh, whose call it bears; inhibition, %; measured here: 10K subset replicate screen; many hits read low in the repeat;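 first of two repeat runs on a subset; 0% = infected and 100% = uninfected wells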
The depositor's hits bear a star; ? = inconclusive; / = not tested or not shown. This is a subset; rates above refer to the full screens.

SMILES	Arbovirus inh	Mtb growth	RecA splice inh	YopH inh	Mtb bLac sens	others
O=C(COC(=O)CCOc1ccccc1)Nc1ccc(Cl)cn1	9	21%	0.1	21	-2
Cc1nnn(C23CC4CC(CC(C(=O)NN)(C4)C2)C3)n1	6	5%	-0.5	-34	-6
Cc1nnc(SCC(=O)N2CCC(C(N)=O)CC2)s1	0	2%	-0.6	1	-10
CCc1ccc2nc(N(CCCN(C)C)C(=O)c3ccc(S(=O)(=O)N4CCc5ccccc5C4)cc3)sc2c1	/	/	4.9	/	99
COC(=O)C1CC(=O)N(c2ccc(OCc3ccccc3Cl)cc2)C1 (configuration not stated)	/	/	0.7	/	99
COc1cc2c(=O)n(Cc3ccco3)c(=O)n(CC(=O)c3ccc(Br)cc3)c2cc1OC	-12	0%	-0.4	-23	1
COc1ccc(S(=O)(=O)N2CCCCC2)cc1NC(=O)C1CSC2(C)CCC(=O)N12 (configuration not stated)	/	/	0.6	/	-6
Cc1ccc(C)c(NC(=O)COC(=O)CCC(=O)c2cccs2)c1	2	-2%	-0.5	/	0
COc1cccc(-c2ccc(SCC(=O)c3ccccc3)nn2)c1	-15	6%	1.9	/	4
CCOC(=O)Cc1csc(NC(=O)CCCC(=O)O)n1	/	-5%	1.0	/	-1
O=Cc1cn(-c2ccccc2)nc1-c1ccc2c(c1)OCCO2	6	10%	/	32	93
Cc1cc(O)c2/c(=N\N)c(-c3csc(C)n3)coc2c1	/	1%	-3.1	/	-3
COc1cc(N2C(=O)c3ccccc3C2=O)c(Cl)cc1C(=O)OCC(=O)N(C)C	6	-9%	-2.3	/	9
CN=C1SC(CC(=O)Nc2cc(Cl)ccc2Cl)C(=O)N1C (configuration not stated)	4	-5%	-0.2	-4	0
O=C(N/N=C/C=C/c1ccco1)c1cccs1	4	-2%	4.0	/	38
CCCNc1c(N)c(=O)oc2ccccc12	5	-7%	-3.2	4	4
CCCCn1c(O)c(C(CC)=Nc2ccc(OCC)cc2)c(=O)[nH]c1=O	0	7.9µM*	-1.1	-23	99
COc1cccc(CNC(=O)CN2C(=O)CCSc3ccc(S(=O)(=O)N4CCCC4)cc32)c1	/	/	2.3	/	-2
N#C/C(C(=O)NCc1ccccc1)=C1/N=C(NC(=O)c2cccs2)c2ccccc21	-11	-10%	-2.7	-27	-1
N#Cc1cc(Br)ccc1N=C1CCCN1c1ccccc1	0	10%	-0.4	-13	3
COC(=O)c1c(NC(=O)C2CC2)sc2c1CCCC2	-4	19%	3.0	-29	0	Arbovirus inh repeat=-7
CCOC(=O)N1CCN(C(=O)c2ccc(Cn3c(=S)[nH]c4cc(C(=O)OC)ccc4c3=O)cc2)CC1	/	/	3.0	/	1
O=C(Nc1nnc(-c2ccccc2)o1)c1cc(Cl)sc1Cl	-26	2.4µM*	0.3	-21	87
CCOc1ccccc1/C=C(\C#N)C(=O)Nc1cccc(C(=O)O)c1	/	2%	0.5	/	-10
COc1ccc(NC(=O)CN(c2ccc(OC)c(Cl)c2)S(=O)(=O)c2ccccc2)cc1	/	/	0.0	/	9
Additional entries follow:
SMILES	Arbovirus inh	Mtb growth	RecA splice inh	YopH inh	Mtb bLac sens	others
COc1ccc(N2CCN(C(=O)c3ccccc3Br)CC2)c([N+](=O)[O-])c1	-7	-2%	3.8	/	-5
CCOc1ccc(C2C(C(=O)c3ccc(C)o3)=C(O)C(=O)N2CCCN(CC)CC)cc1 (configuration not stated)	/	-3%	-2.7	/	-8
COc1ccc(CC(NC(C)=O)C(=O)NC2CCN(S(=O)(=O)c3ccccc3)CC2)cc1OC (configuration not stated)	11	-4%	-1.2	-7	-17
Cc1ccc(C)c(S(=O)(=O)N2CCN(c3ncccn3)CC2)c1	1	-2%	0.0	/	-5
CCCCCCC(=O)N/N=C1\CCCc2ccccc21	3	18%	1.5	-9	4
O=C(c1ccccc1NS(=O)(=O)c1ccc(Br)s1)N1CCCC1	7	3%	-1.0	-1	-7
CCN(CC)C(=O)CSc1nc2c(sc(=S)n2-c2ccccc2)c(=O)n1Cc1ccco1	-14	3%	-76	13	5
O=C(c1ccc(C(F)(F)F)cc1)C1CCCN(C(=O)CCN2CCCO2)C1 (configuration not stated)	6	-4%	-2.0	/	3
COc1ccc(CNc2ncccc2[N+](=O)[O-])cc1	/	/	-2.1	/	5
COCc1ccc(C(=O)N2CCCC(N(C)CCc3ccc(OC)c(OC)c3)C2)s1 (configuration not stated)	/	/	-0.6	/	-6
CCN1C(=O)/C(=C/c2ccc(OC)c(OC)c2)N=C1SCC(=O)NCc1ccco1	0	-1%	3.7	-5	2
Fc1ccc(-n2nnc(-c3cccnc3)n2)cc1	4	-10%	1.6	/	-5
Nc1cc(N)nc(SCC(=O)NCCC2=CCCCC2)n1	/	/	-1.6	/	-2
Cc1cc(NC(=O)COC(=O)c2cc3c(s2)CCC(C)C3)no1 (configuration not stated)	2	5%	5.8	-38	50
COc1ccc(S(=O)(=O)NNC(=O)c2ccc([N+](=O)[O-])cc2)cc1	/	/	-4.5	/	2
C/C(=N\Nc1nncc2ccccc12)c1ccc(Cl)c([N+](=O)[O-])c1	/	/	-1.2	/	-7
O=S(=O)(c1cccc(NC(=S)N2CCN(c3ccccc3)CC2)c1)C(F)F	30	5%	-0.9	-24	-2
Cc1ccccc1-n1nc(SCC(=O)O)sc1=S	-2	-7%	2.4	/	2
CCc1ccc(/C=N/NC(=O)c2nnn(-c3nonc3N)c2CN2CCc3ccccc32)cc1	/	/	5.1	/	-2
CC(=O)Nc1nc(C(F)(F)F)cs1	7	0%	-0.5	-15	4
Cc1cc(C(=O)COC(=O)CN=C2NS(=O)(=O)c3ccccc32)c(C)n1CCc1ccc(Cl)cc1	6	-6%	2.0	-15	?
Cc1ccc2c(c1)N(CC(=O)N1CCCCC1c1cccnc1)C(=O)CO2 (configuration not stated)	-3	-5%	-2.4	0	-7
Cc1ccc(/C=N/NC(=O)c2nnn(-c3nonc3N)c2C)o1	/	/	-2.0	/	-2
Cc1cc(C)cc(NC(=O)CC2Oc3ccc(C)cc3NC2=O)c1 (configuration not stated)	/	/	-1.5	/	-8
CSc1ccccc1NS(=O)(=O)c1ccc2c(c1)OCCO2	7	-5%	1.8	-5	2
Continuation:
SMILES	Arbovirus inh	Mtb growth	RecA splice inh	YopH inh	Mtb bLac sens	others
Cc1ccc(CC2CC(=O)N(c3nc4ccccc4s3)C2=O)cc1 (configuration not stated)	11	-4%	1.1	/	3
Cc1[nH]c(=O)[nH]c(=O)c1S(=O)(=O)N1CCC(C(=O)N2CCN(c3cccc(C(F)(F)F)c3)CC2)CC1	-3	4%	0.1	/	2
Cn1c(SCC(=O)NNC(=O)Cc2ccccc2)nnc1-c1ccccc1	-6	-8%	1.2	-16	2
COc1cc(C(=O)NCCOc2ccccc2C)cc(OC)c1OC	/	/	4.8	/	-2
O=C(COc1ccccc1Cl)NNC(=O)c1cc(S(=O)(=O)N2CCOCC2)ccc1N1CCCC1	/	/	-2.2	/	-20
O=C(NCCCO)c1ccc2[nH]c3ccccc3c2c1	-7	0%	-1.8	-40	-2
O=C(CNC(=O)C1COc2ccccc2O1)N/N=C\c1ccccc1Cl (configuration not stated)	/	/	0.1	/	-2
COc1ccc(-c2noc(CN(C(=O)c3ccc4c(c3)OCO4)C(C)C)n2)cc1	/	/	3.4	/	9
Cc1cccc(NC(=O)CS(=O)(=O)Cc2ccccc2)n1	0	0%	-0.8	-13	-2
COC(=O)C/C(N)=C(\C#N)C(=O)OC	/	-1%	2.2	/	2
CC(C)(CO)NCc1c(OCc2ccc(Cl)cc2)ccc2ccccc12	/	/	-5.8	/	21
COc1ccc(S(=O)(=O)NCCc2cn3nc(C)c(C)nc3n2)cc1C	/	/	-125	/	-15
O=C(Nc1ccc(C(F)(F)F)cc1)c1csc(-c2ccncc2)n1	7	3%	-0.6	/	26
CC(=O)c1c(C)[nH]c(C(=O)OCC(=O)c2c(N)n(C)c(=O)n(C)c2=O)c1C	6	-3%	1.3	/	4
CCc1cc(-c2n[nH]c(=S)n2-c2cccc(C)c2)cs1	-5	/	/	-8	-12
CC(C)Cc1nc(N2CCNCC2)c(C#N)c2c1CCC2	/	12%	0.5	/	-10
CCN1CCN(c2cc(C)c3cc(NC(=O)c4ccccc4F)ccc3n2)CC1	-34	5%	/	-41	/
COc1ccc(NC(=O)c2cc(-c3ccccn3)nc3c(C)cc(C)cc23)c(C)c1	/	/	-3.5	/	66
CCc1ccc(NC(=S)N2CCC(NC(=O)C3CCCCC3)CC2)cc1	/	/	-1.9	/	-10
CCC(=O)n1nc(NCc2ccccc2OC)nc1NCc1ccccc1OC	13	14%	1.9	-19	-6
O=C(Nc1nnc(CCN2CCOCC2)s1)C1CCCCC1	5	-4%	0.8	-42	-5
CCOC(=O)c1c(NC(=S)NC(=O)c2ccc(Cn3cc(Cl)cn3)o2)sc2c1CCCCC2	-5	1%	-1.1	-22	60
S=C(NCc1ccccn1)Nc1ccccc1Cl	-8	6%	6.1	-28	1
Cc1cc(Nc2ccccc2)nn1C(=O)c1ccc([N+](=O)[O-])cc1	-2	2%	1.5	-29	63
CCOc1ccccc1NC1=NCC(=O)N1Cc1ccc(F)cc1	5	-6%	-2.7	-59	-3

Entries above containing a COOH group:
SMILES	Arbovirus inh	Mtb growth	RecA splice inh	YopH inh	Mtb bLac sens	others
CCOC(=O)Cc1csc(NC(=O)CCCC(=O)O)n1	/	-5%	1.0	/	-1
CCOc1ccccc1/C=C(\C#N)C(=O)Nc1cccc(C(=O)O)c1	/	2%	0.5	/	-10
Cc1ccccc1-n1nc(SCC(=O)O)sc1=S	-2	-7%	2.4	/	2

A portion of the results above, for reference:
SMILES	Arbovirus inh	Mtb growth	RecA splice inh	YopH inh	Mtb bLac sens	others
Cc1cc(Nc2ccccc2)nn1C(=O)c1ccc([N+](=O)[O-])cc1	-2	2%	1.5	-29	63
CCOc1ccccc1NC1=NCC(=O)N1Cc1ccc(F)cc1	5	-6%	-2.7	-59	-3

Three compounds already listed, ordered by count of non-hydrogen atoms, lowest first:
SMILES	Arbovirus inh	Mtb growth	RecA splice inh	YopH inh	Mtb bLac sens	others
O=C(Nc1nnc(-c2ccccc2)o1)c1cc(Cl)sc1Cl	-26	2.4µM*	0.3	-21	87
COc1cccc(-c2ccc(SCC(=O)c3ccccc3)nn2)c1	-15	6%	1.9	/	4
COc1ccc(NC(=O)c2cc(-c3ccccn3)nc3c(C)cc(C)cc23)c(C)c1	/	/	-3.5	/	66

Next section:
SMILES	Arbovirus inh	Mtb growth	RecA splice inh	YopH inh	Mtb bLac sens	others
Cc1ccc(S(=O)(=O)CC(=O)c2cc(C)c(OC(=O)N(C)C)c(C)c2)cc1	5	-7%	-1.2	/	-9
CC(C)(C)C(=O)Nc1ccc(-c2nc3ccccc3c(=O)o2)cc1	12	10µM*	2.2	/	99
O=C(NN1C(=O)c2ccccc2NC1c1ccoc1)c1ccc([N+](=O)[O-])cc1 (configuration not stated)	-3	3%	2.6	/	0
COc1ccc2nc(NC(=O)CCN3C(=O)c4ccccc4C3=O)sc2c1	3	-4%	-2.1	-30	3
Cc1ccc(NC(=O)CN2C(=O)S/C(=C\c3cccn3C)C2=O)cc1	-18	-9%	-2.1	-18	0
COc1ccc(C(C)=O)cc1COC(=O)CSC(C)C(=O)Nc1cc(C)on1 (configuration not stated)	/	/	-1.1	/	-4
COc1ccc(NS(=O)(=O)c2ccc(NS(=O)(=O)c3ccc(SC)cc3)cc2)c(OC)c1	5	-7%	4.5	-13	-7
O=C(O)c1ccc(Oc2ccc(S(=O)(=O)c3ccc(C(=O)O)c(C(=O)O)c3)cc2)cc1	/	/	-1.9	/	-7
COc1ccc(Cl)cc1C(=O)N1CCN(Cc2ccc3c(c2)OCO3)CC1	/	/	-3.5	/	-4
Cc1ccc(SCc2ccc(C(=O)Nc3cccc([N+](=O)[O-])c3C)cc2)cc1	-2	11%	-1.4	-32	100
CCOCCCn1c(SCc2nc3sc(C(=O)O)c(C)c3c(=O)[nH]2)nnc1-c1ccc(Cl)cc1	6	-4%	0.9	/	6
CCOc1cc(NC(=S)NCc2ccco2)c(OCC)cc1NC(=O)c1ccco1	-8	/	1.0	/	2
O=S(=O)(Cc1ccc(Cl)cc1)c1ccccc1-c1nnc(-c2ccccc2)o1	-12	6%	-7.3	-24	0
Cc1nn(C(C)C(=O)O)c(=O)c2c1sc1ccccc12 (configuration not stated)	14	-16%	-1.4	-33	-6
COc1ccc(NC(=O)c2ccco2)cc1NC(=O)c1c(F)c(F)c(OC)c(F)c1F	0	7%	-0.7	4	-5
COc1ccc(OCC(O)CNC(C)c2ccccc2)cc1 (configuration not stated)	/	/	-10	/	-6
CCOc1cc(C2C3=C(CC(C)(C)CC3=O)N(C)C3=C2C(=O)CC(C)(C)C3)ccc1O	/	/	-1.5	/	2
COc1ccc(-n2nc3c(c2NC(=O)COc2ccccc2)CS(=O)(=O)C3)cc1	/	/	0.2	/	-1
O=C1CC(=O)C(n2cncn2)C(c2cccc(Cl)c2)C1 (configuration not stated)	0	2%	-6.0	-55	-20
